VDR inhibitor: vitamin D3 receptor (human) inhibition | P11473 | 400,000 compounds, 0.93% hits | Potency, µM, for the others: max response, negative = inhibition, actives largely listed as inhibitors | VDR-SRC2-3 peptide fluorescence polarization, 2 h; active means well fitted inhibition curve with a large enough effect; inconclusive means small, poorly fitted or top-dose-only effect, or another doubt; inactive means no such curve, though single readings can be large or run the other way; further: series mostly up to about 120 µM
Target sequence (P11473 whole entry, looked up): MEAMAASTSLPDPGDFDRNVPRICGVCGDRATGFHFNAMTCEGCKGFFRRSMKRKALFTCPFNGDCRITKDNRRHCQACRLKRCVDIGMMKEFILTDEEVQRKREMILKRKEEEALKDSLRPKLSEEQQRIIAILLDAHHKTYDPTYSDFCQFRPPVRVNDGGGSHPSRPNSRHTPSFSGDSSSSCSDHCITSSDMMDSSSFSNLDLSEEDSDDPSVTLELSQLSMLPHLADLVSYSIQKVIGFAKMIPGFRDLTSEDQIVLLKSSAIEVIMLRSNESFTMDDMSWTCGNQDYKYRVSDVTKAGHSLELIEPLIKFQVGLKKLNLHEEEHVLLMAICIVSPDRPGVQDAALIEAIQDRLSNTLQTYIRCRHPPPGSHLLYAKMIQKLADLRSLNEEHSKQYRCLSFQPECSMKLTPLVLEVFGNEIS
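After 23 nl compound addition and a short centrifugation, plates sat for 2 hours at ambient temperature; polarization of fluorescence then indicated loss of VDR binding to peptide SRC2-3.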
* marks the source's active call; other numbers are inactive results; ? = inconclusive; & = joins results of further samples. On the % scale 0 is the no-effect control and ±100 the full control effect; potency means the concentration at half of the fitted maximal effect. Only part of the results is shown (hit frequency here may not be typical).

SMILES	VDR inhibitor
N=c1oc2ccccc2cc1-c1nc(-c2ccc(Cl)cc2)cs1	0%
COc1ccccc1-c1c(C)nn2c(N3CCN(c4ccccc4)CC3)cc(C)nc12	-5%
CCn1cc(C(=O)OCC(=O)c2ccc(Cl)cc2)c(=O)c2ccc(C)nc21	2%
Cc1nc2ccn(Cc3ccccc3)c(=O)c2cc1C(=O)Nc1ccc(F)cc1Cl	24%
O=C(NCc1ccccc1)c1ccc2c(c1)N(Cc1ccccc1)C(=O)c1ccccc1S2(=O)=O	-13%
Cc1ccc(NC(=S)NC(=O)c2ccc(F)cc2)cc1S(=O)(=O)Nc1ccccc1Cl	-10%
Cc1ccc(CN2C(=O)C(O)(CC(=O)c3ccc(C)cc3)c3ccccc32)cc1 (stereo unspecified)	?
CCc1ccc(CNC(=O)c2cc3c(s2)-c2ccccc2OC3)cc1	4%
N#Cc1nc(COc2cccc(Cl)c2)oc1NCc1ccncc1	-12%
Cc1c(C=O)c2cc(OCc3ccccc3)ccc2n1C	-9%
OCCCNc1ncnc2sc3c(c12)CCN(Cc1ccccc1)C3	-4%
Cc1occc1-c1nnc(SCC(=O)c2ccc(Cl)cc2)n1C	?
CCCN(CC(=O)Nc1ccccc1C)C(=O)/C=C/c1ccc(OCC)c(OC)c1	5%
Cc1ccc2nc(NC(=O)COC(=O)c3cccnc3)sc2c1	-16%
O=C(COC(=O)C(Cc1c[nH]c2ccccc12)NC(=O)c1ccc(Cl)cc1)c1ccc(Cl)cc1 (stereo unspecified)	7%
CC1CCC(NC(=O)c2ccc(CS(=O)(=O)c3c(Cl)cccc3Cl)o2)CC1 (stereo unspecified)	-4%
Cc1oc2c(c1C(=O)O)C(=O)c1ccccc1C2=O	-20%
O=C(COC(=O)CNC(=O)c1ccc(Br)o1)Nc1ccccc1OC(F)F	-14%
CC(=O)c1ccc(N2CCN(c3ncnc4c3c(-c3ccccc3)cn4-c3cccc(C)c3)CC2)cc1	3%
C=C(C)Cn1c(SCC(=O)Nc2cc(C)ccc2C)nc2sc3c(c2c1=O)CCCC3	-12%
CCCCn1c(SCC(=O)c2ccccc2)nc2sc3c(c2c1=O)CCCC3	5%
O=C(Cn1ncc2ccsc2c1=O)N1CCN(c2ccc(F)cc2)CC1	-1%
CCOc1ccc(NC(C)C(=O)N/N=C/c2cccs2)cc1 (stereo unspecified)	2%
COc1ccc(CN2CCN(Cc3cccc(Oc4ccccc4)c3)CC2)c(OC)c1OC	-16%
O=C(Nc1ccc(Cl)cc1)c1cc2c(-c3ccccc3)nn(-c3ccccc3)c2s1	13%
Cc1ccc(CNC(=O)COC(=O)C2CCC2)cc1	13%
Cc1ccc(NC2CCCN(C(=O)c3cnc4ccccn4c3=O)C2)cc1C (stereo unspecified)	-11%
COc1cccc(OC)c1OCC(O)CN1CCN(c2ccccc2)CC1 (stereo unspecified)	-16%
O=C(c1cc2cc(Br)ccc2[nH]1)N1CCc2ccccc21	-7%
COc1ccc(-c2nc3scc(CCNS(=O)(=O)c4ccc5c(c4)OCCO5)n3n2)cc1	12%

Grouped by structure, those above containing sulfur (14)
SMILES	VDR inhibitor
N=c1oc2ccccc2cc1-c1nc(-c2ccc(Cl)cc2)cs1	0%
O=C(NCc1ccccc1)c1ccc2c(c1)N(Cc1ccccc1)C(=O)c1ccccc1S2(=O)=O	-13%
Cc1ccc(NC(=S)NC(=O)c2ccc(F)cc2)cc1S(=O)(=O)Nc1ccccc1Cl	-10%
CCc1ccc(CNC(=O)c2cc3c(s2)-c2ccccc2OC3)cc1	4%
OCCCNc1ncnc2sc3c(c12)CCN(Cc1ccccc1)C3	-4%
Cc1occc1-c1nnc(SCC(=O)c2ccc(Cl)cc2)n1C	?
Cc1ccc2nc(NC(=O)COC(=O)c3cccnc3)sc2c1	-16%
CC1CCC(NC(=O)c2ccc(CS(=O)(=O)c3c(Cl)cccc3Cl)o2)CC1 (stereo unspecified)	-4%
C=C(C)Cn1c(SCC(=O)Nc2cc(C)ccc2C)nc2sc3c(c2c1=O)CCCC3	-12%
CCCCn1c(SCC(=O)c2ccccc2)nc2sc3c(c2c1=O)CCCC3	5%
O=C(Cn1ncc2ccsc2c1=O)N1CCN(c2ccc(F)cc2)CC1	-1%
CCOc1ccc(NC(C)C(=O)N/N=C/c2cccs2)cc1 (stereo unspecified)	2%
O=C(Nc1ccc(Cl)cc1)c1cc2c(-c3ccccc3)nn(-c3ccccc3)c2s1	13%
COc1ccc(-c2nc3scc(CCNS(=O)(=O)c4ccc5c(c4)OCCO5)n3n2)cc1	12%

Remaining list, next part:
SMILES	VDR inhibitor
COc1cccc(CN2CC(C(=O)NCCc3ccc(C)o3)CCC2=O)c1 (stereo unspecified)	?
CCc1ccc(Cn2c(CNS(=O)(=O)c3ccc(F)c(Cl)c3)nc3cccnc32)cc1	6%
CCOc1ccc(NC(=O)c2cc(OC)nc3ccccc23)cc1	13%
O=C(Nc1cc2c(cc1C(=O)O)OCCCO2)c1ccc(C(F)(F)F)cc1	-26%
CC(C)CCC(C)NC(=O)C1CCN(S(=O)(=O)/C=C/c2ccccc2)CC1 (stereo unspecified)	1%
CCC(C)NS(=O)(=O)c1ccc(OCC(=O)N2CCC(C)CC2)cc1 (stereo unspecified)	-6%
COc1ccc(C2CC(c3ccc(Cl)cc3)=NN2C(C)=O)cc1 (stereo unspecified)	?
CSCCC(N=C(NS(=O)(=O)c1ccc(C)cc1)c1ccccc1)C(=O)O (stereo unspecified)	-13%
COc1ccccc1-c1nc(C(N)=O)c2[nH]c(=O)n(-c3cccc(C)c3)c2n1	10%
O=C(NC1CCCC1)C1CCCN(C(=O)Nc2ccccc2)C1 (stereo unspecified)	-8%
c1ccc(-c2noc(-c3ccc4c(c3)OCO4)n2)cc1	9%
Cc1ccc(S(=O)(=O)N2[C@@H](c3ccc(F)cc3)C(C(=O)O)=CC[C@H]2c2ccc(Cl)cc2)cc1	-9%
CN(C)S(=O)(=O)c1cccc(C(=O)N=C2N=C3C=CC(Cl)=CN3Cc3ccccc32)c1	-10%
N#CC1=C(N)Oc2cc3c(cc2C1c1ccc(Cl)cc1)OCO3 (stereo unspecified)	32%
CCCCN(CCCC)CCCNC(=O)Cn1cc2c(n1)-c1c(oc(C(=O)N3CCCC3)c1C)CC2	2%&7%
Nc1nc(-c2ccco2)nn1C(=O)c1ccccc1	-13%
CCOC(=O)c1c(NC(=O)COC(=O)c2ccc(C)s2)sc2c1CC(C)(C)NC2(C)C	-5%
CCNC(=S)Nc1cc(OCC)c(N2CCOCC2)cc1OCC	-20%
CCOc1ccc2nc(NC(=O)C3=NNC(=O)CC3)sc2c1	4%
COc1ccc(S(=O)(=O)N2CCCCCC2)cc1NC(C)C(=O)Nc1ccc(NC(C)=O)cc1 (stereo unspecified)	2%
N#C/C(=C/c1cccs1)c1nc2ccccc2[nH]1	-3%
OCCNC(=S)Nc1ccc2c(c1)OCCO2	-10%
Cc1oc2cc3oc(=O)c(CCC(=O)NCCCN4CCOCC4)c(C)c3cc2c1C	-11%
COc1cccc(NC(=O)C(c2ccccc2)N2CCN(c3ccccn3)CC2)c1 (stereo unspecified)	-29%
CCN(CC)S(=O)(=O)c1ccc(Cl)c(NC(=O)COC(=O)c2ccc([N+](=O)[O-])o2)c1	-26%
O=C(COc1ccc(Cl)cc1)NNC(=O)c1ccccc1C(=O)O	7%
CC1CCCCN1CCCNC(=O)c1ccc2c(=O)n(CCc3ccccc3)c(=O)[nH]c2c1 (stereo unspecified)	8%
CC1CCN(S(=O)(=O)c2ccc3c(c2)CCC(=O)N3CC(=O)Nc2cccc(C#N)c2)CC1	18%
Cc1ccc(NC(=S)NC2CCCC2)c(C)c1	21%
O=C(CCC1CCCCC1)Nc1c[nH]c(=O)[nH]c1=O	24%
Cn1cnc2c(cnn2C)c1=N	10%
CC(=O)C1=C(O)C(=O)N(c2ccccn2)C1c1ccccc1[N+](=O)[O-] (stereo unspecified)	?
CCN(CC)C(=O)Cn1cc(S(=O)(=O)CC(=O)NCc2ccc(C)cc2)c2ccccc21	-13%
COCCCNc1nc2ccccc2nc1NS(=O)(=O)c1cccc(Cl)c1	-8%
CCN(Cc1cccc(OC)c1)CC1CCCN(CCc2cccc(OC)c2)C1 (stereo unspecified)	18%
Cc1ccc2c(c1)C(c1ccccc1)N(C(=O)c1cccc([N+](=O)[O-])c1)CC(=O)N2 (stereo unspecified)	-10%
Cn1cc(CNC(=O)c2sc3cccc(Cl)c3c2Cl)cn1	19%
CCCOC(=O)c1ccc(Oc2cn[nH]c2-c2ccc(OCC(=O)NN)cc2O)cc1	-1%
CSc1nncc(-c2ccccc2)n1	-1%
O=C(CCn1c(=O)oc2ccccc21)N1CCN(c2ccccc2F)CC1	2%
Cc1ccc(NC(=O)c2ccc3ccccc3n2)cc1S(=O)(=O)N1CCOCC1	-12%
CCCCNc1cc(C(=O)O)cc(S(N)(=O)=O)c1Oc1ccccc1	-17%&-6%&0%
O=C1c2ccccc2C(=O)N1CC1CCCO1 (stereo unspecified)	-8%
COc1ccc2[nH]cc(CCNc3ncncc3-c3ccoc3)c2c1	-23%
CCOC(=O)C1CCCN(C(=O)CCNC(=O)Cn2ccc3ccccc3c2=O)C1 (stereo unspecified)	0%
Cc1ccc(-n2c(=O)c3cccnc3n2CC(=O)Nc2cc(C)cc(C)c2)cc1	2%
Cc1cc(-c2ccco2)n(CC(=O)NCCN(C)C)n1	-7%
Cn1c(=O)c2c(nc(Sc3ncnn3CC(=O)N3CCOCC3)n2C)n(C)c1=O	-17%
Cc1csc(NC(=O)c2cc(C)on2)n1	-12%
Cc1oc(-c2ccc(C(=O)Nc3cc(F)ccc3F)cc2)nc1COc1ccccc1	14%
O=S(=O)(c1ccc2ccccc2c1)N1CCN(C(=S)Nc2ccc(F)c(Cl)c2)CC1	-9%
COc1cc(/C=N/Nc2nc(=O)[nH]nc2C)cc([N+](=O)[O-])c1O	-25%
O=C(CN(Cc1ccccc1)C1=NCCS1)c1ccc(Cl)cc1	-8%
CC(C)NOC(=O)c1ccc(Cl)cc1	-12%
COc1cccc(CNC(=O)Nc2cc(C(=O)NCc3cccc(F)c3)ccc2N2CCCC2)c1	6%
CC(Oc1ccc(Br)cc1)C(=O)NCC(C)(C)N1CCOCC1 (stereo unspecified)	-5%
CC(C)(C)C1CCC(=NNc2ccc(S(N)(=O)=O)cc2[N+](=O)[O-])CC1 (stereo unspecified)	-25%
Cc1nc2oc3c(NCC4CCCO4)ncnc3c2c2c1COC(C)(C)C2 (stereo unspecified)	-6%
Cc1ccc2c(=O)[nH]c(Cc3ccccc3C(=O)O)nc2c1	-9%
Cn1cccc1/C=C1\SC(=S)N(NC(=O)c2ccc(Cl)cc2)C1=O	-22%
Remaining list, next part
SMILES	VDR inhibitor
COc1ccccc1N1CCN(c2ncnc3sc(C)c(-c4ccccc4)c23)CC1	9%
CCCC1(c2ccsc2)NC(=O)NC1=O (stereo unspecified)	-3%
Cc1cccc(NC(=O)c2ccc(N(C)C3CCCCC3)c([N+](=O)[O-])c2)n1	-5%
CCN(CC(=O)Nc1ccccc1C(F)(F)F)C(=O)c1ccccc1Cc1ccccc1	-9%
CCOC(=O)c1cc(CC)sc1NC(=O)C1CC1	16%
CCOc1ccc(-c2nnn(CCC(=O)O)n2)cc1OC	15%
CN(C)S(=O)(=O)c1ccc(C(=O)NCCN=C2NS(=O)(=O)c3ccccc32)cc1	-7%
Cc1ccccc1-n1c(=O)[nH]c(=O)c2c(N)c(C(=O)c3ccc(Cl)cc3)sc21	4%
COc1ccc2[nH]cc(CCNc3nc(-c4c(C)noc4C)nc4ccccc34)c2c1	-5%
COc1cc(/C=C/C(=O)O)cc(Br)c1O	18%
C=CCc1cccc2cc(C(=O)N(CC)CC)c(=O)oc12	17%
COc1ccc(NC(=O)C2CCCN2C(=O)Nc2ccc(OC)cc2)cc1 (stereo unspecified)	-14%
CC(C)OC(=O)CSc1nnc(-c2ccc([N+](=O)[O-])cc2)o1	4%
COc1ccccc1NC(=O)CSc1ccc(-c2cccs2)nn1	-7%
CC1CCCCC12NC(=O)N(CC(=O)NCc1ccco1)C2=O (stereo unspecified)	-9%
Cc1ccc(CNC(=O)CCC(=O)Nc2nnc(C3CCCCC3)s2)cc1	1%
CCOc1ccc(CNC(=O)c2ccc3c(c2)c(C)c(C)n3C)cc1	5%
Cc1noc(C)c1CSc1nnc2scc(-c3ccc(Cl)cc3)n12	18%
Cc1ccc(Cl)c(OCC(=O)NN2CCN(C)CC2)c1	-27%
O=C(O)C(Cc1ccnc2ccccc12)=NO	1%
O=c1cc(C(F)(F)F)oc2c1ccc1ccccc12	5%
Cn1c(-c2ccccc2)c(C(=O)CCl)c2ccccc21	71µM*
O=C(CCCn1c(=O)[nH]c2ccc(Br)cc2c1=O)NCc1ccc(Cl)cc1	8%
O=C1Nc2ccc(Br)cc2/C1=C/C(=O)c1ccc2c(c1)OCO2	40µM*
Cc1cc2oc(C(=O)NCCc3ccc(S(N)(=O)=O)cc3)cc(=O)c2cc1C	?
COC(=O)c1sc2cnccc2c1N	11%
Cc1cccc(NC(=O)c2ccc3c(=O)n4c(nc3c2)CCCCC4)n1	-5%
O=C1c2ccccc2C(=O)N1CCSc1ncn[nH]1	7%
Cc1csc2c(NCCCN3CCOCC3)ncnc12	15%
Cc1c(C(=O)NCc2cccnc2)oc2ccc(S(=O)(=O)N3CCCC(C)C3)cc12 (stereo unspecified)	-9%
CCc1ccc(NC(=O)Nc2ccsc2C(=O)OC)cc1	1%
CC(C)CC(NC(=O)C1CCC(C)CC1)C(=O)Nc1ccccc1F (stereo unspecified)	0%
CCCC(c1nnnn1CS(=O)(=O)c1ccc(C)cc1)N1CCN(c2ccccc2)CC1 (stereo unspecified)	-9%
CC(NC(=O)Cn1cnc2c1c(=O)n(C)c(=O)n2C)c1ccccc1 (stereo unspecified)	-8%
CCN1CCN(C(=O)CCn2c(=O)c3cccn3c3cccnc32)CC1	3%
COc1ccc(C2=NOC(C(=O)NCCCn3ccnc3)C2)cc1 (stereo unspecified)	-11%
COc1cc(CNc2ccc(C(=O)O)cc2)cc(Br)c1OCC(=O)NC(C)(C)C	-8%

Screening results deposited in PubChem by National Center for Advancing Translational Sciences (NCATS).
